PrP UTR inh: inhibition of PrP 5' UTR reporter expression | cell-based PrP 5' UTR mRNA reporter, plate reader | 340,000 tested, 0.35% active | inhibition, % (test concentration not listed);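 active = every replicate at 50% or more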;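 also: 0 = median of the neutral control wells; tested in H4 reporter cells; numbers are from one replicate; inactives centre near -14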
Mtb hypoxia rep: reduces hypoxia-regulated biosensor signal in M. tuberculosis; M. tuberculosis hypoxia-regulated fluorescent reporter, fluorescence; fluorescence inhibition, % (test concentration not listed); 300,000 tested, 0.1% active;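 active = 35 to 45% if threefold the growth effect, above 45% if 1.5-fold the growth effect; inactive = the rest, general growth blockers included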;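 also: wells of about 50 µL received 100 nL stock; 0% = vehicle wells and 100% = reference inhibitor wells; whole bacteria with a GFP reporter of the hypoxia response; strong numbers were not always called active; many hits fall short of the cut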
BJeLR viability: kills HRASV12-expressing BJeLR cells | BJeLR (HRASV12) viability, CellTiter-Glo ATP luminescence, 48 h; reference of the scale not given here | AID 1554 | 300,000 tested, 0.17% active | inhibition, % (test concentration not listed);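 active = replicate mean above 50%; inconclusive = above 50% but judged a plate artefact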;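 also: 50 nL library stock added to about 25 µL; numbers are from one replicate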
Autofluor counter: counter-screen for toxin protease inhibitors: compound fluorescence; fluorescence intensity (test concentration not listed); 360,000 tested, 3.1% active; compound autofluorescence counterscreen, microsphere flow cytometry; stronger effect = higher value;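 active = at least 3 SD above the mean of all compounds, about 16000 in these data; inconclusive = too few beads counted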;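 also: 100 nL of 1 mM stock went into each well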
RN4220 kill: S. aureus RN4220 growth inhibition. OD600, 16 h. inhibition, % (no concentration beside the values). 330,000 tested, 0.33% active. AID 1259311;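 active = z-score of -3 or lower and OD600 up to 0.18 on both plates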;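 also: plate controls were untreated cells for no effect and reference antibiotic for full effect; stock transfer was 100 nL into about 80 µL; one replicate is shown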
ugtP null kill: growth inhibition of S. aureus ugtP deletion strain. S. aureus RN4220 ugtP deletion, OD600 growth, 16 h; some inactives read as strong as hits. growth inhibition, % (no concentration beside the values). 330,000 tested, 0.54% active;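 active = z-score under -3 and OD600 up to 0.15 on both plates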;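 also: plate controls were untreated wells for no effect and antibiotic for full effect; wells of about 80 µL received 100 nL stock; the first replicate is given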
Mtb hypoxia rep growth: also measured in Mtb hypoxia rep; calls as there; growth inhibition, %; measured here: M. tuberculosis growth (absorbance);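 0% = vehicle and 100% = reference antibiotic; read after six days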
* = called active by the depositor; ? = inconclusive; / = no result given; & = joins results of further samples.

SMILES | PrP UTR inh | Mtb hypoxia rep | Mtb hypoxia rep growth | BJeLR viability | Autofluor counter | RN4220 kill | ugtP null kill
Cc1[nH]n(S(=O)(=O)c2ccccc2)c(=O)c1N=Nc1cccc(Cl)c1 | -13 | 7 | 0 | -2 | / | 6.3 | 5
CCOc1ccccc1N(CC(=O)Nc1ccc(OC)cc1OC)S(=O)(=O)c1ccccc1 | -14 | -13 | 0 | -3 | 3920 | 3.2 | -28
COc1ccccc1OCCOc1ccc(/C=C2/C(=N)N3OC(C)=CC3=NC2=O)cc1OC | -23 | 3 | 5 | -18 | 3730 | 7.7 | -2
Clc1ccc(OCc2nnc(SCCN3CCCCC3)n2Cc2ccco2)cc1 | 0 | / | / | 4 | ? | -1.1 | 4
O=C(CC(=O)NCc1ccc(Cl)cc1)NCc1ccc(Cl)cc1 | -7 | 4 | 1 | 1 | 3758 | 0.4 | -2
CS(=O)(=O)N1Cc2ccccc2CC1C(=O)OCC(=O)NCCc1ccc(S(N)(=O)=O)cc1 (configuration not stated) | -8 | -1 | 18 | / | 3662 | -2.9 | -6
Cc1c(NS(=O)(=O)c2cccc(C(=O)NCc3ccco3)c2)c(=O)n(-c2ccccc2)n1C | 2 | 9 | 1 | / | ? | 2.4 | -1
O=C(CSc1ccc(-c2cccnc2)nn1)N1CCCc2ccccc21 | / | 6 | -1 | -2 | / | 7.5 | 13
COc1cccc(OC)c1C(=O)Nc1nc(-c2ccccc2)cs1 | -10 | -7 | 6 | 2 | 4094 | -4.7 | 7
Cc1cccc(NC(=O)CSCC(=O)NCc2ccco2)c1 | -14 | 10 | -3 | -6 | 4259 | 2.0 | 0
COc1ccc(C(CC(=O)O)N2Cc3ccccc3C2=O)cc1 (configuration not stated) | 7 | 0 | -17 | 1 | 3103 | -0.5 | 9
CC1CC(C)CN(CC(=O)c2c[nH]c3ccccc23)C1 (configuration not stated) | -3 | 3 | 5 | 3 | 7467 | 1.5 | 12
CCCSCCCNC(=O)Cn1c(=O)c2cccn2c2ccccc21 | -32 | 0 | 0 | 3 | 3611 | 1.8 | 8
O=C(Nc1ccc(Cl)cc1)Nc1nccs1 | -58 | 8 | 2 | -8 | 4174 | -6.4 | -18
COc1cccc(C(=O)COc2ccc3ccc(=O)oc3c2)c1 | -11 | -12 | -5 | 4 | 2098 | 3.3 | 4
CC1(C(=O)O)CCC(C(=O)NCCc2ccccc2)C1(C)C (configuration not stated) | -18 | / | / | 2 | 2803 | -2.4 | 1
Cc1nn(CC2CC2)c(=O)n1-c1ccc(Oc2ccccc2)cc1 | -34 | 1 | 6 | 2 | 4377 | 0.9 | 5
CC1CCN(c2ccc(/C=N/n3nnnc3N)cc2[N+](=O)[O-])CC1 | -33 | / | / | 8 | 6960 | / | /
CC1(C)CC(CCC(=O)Nc2ccccc2Cl)C(=O)O1 (configuration not stated) | -27 | 10 | 17 | -3 | 23125* | 2.6 | 4
Cc1ccc(C(=O)OCC(=O)N(C)C2CCS(=O)(=O)C2)cc1S(=O)(=O)N1CCOCC1 (configuration not stated) | -16 | 3 | -7 | 3 | ? | 0.0 | 7
COC(=O)N/N=C/c1cc(Cl)cc(Cl)c1OCc1ccccc1F | -2 | / | / | -5 | 2425 | / | /
COc1ccc(CCN=C(N)NS(=O)(=O)c2ccc3ccccc3c2)cc1 | -27 | 5 | 0 | 4 | 2750 | 5.9 | -6
CCN(CC)C(=O)N1CCN(Cc2ccc3c(c2)OCO3)CC1 | 5 | 0 | 1 | 7 | 2403 | -2.0 | 1
O=C(c1cc(Sc2cccc(Cl)c2)nc2ccccc12)N1CCN(c2ccccn2)CC1 | -9 | 7 | 1 | -7 | 3472 | -2.9 | 10
COc1ccc(-c2nn(CCC(=O)O)cc2CCC(=O)O)cc1 | 3 | / | / | 11 | 3395 | 2.2 | 1
CCc1nc2ccc(C(=O)N3CCN(c4cccc(OC)c4)CC3)cc2nc1CC | -10 | 13 | 5 | 5 | 5064 | 3.5 | -13
CCN1CC2C3C(=O)N(C)C(=O)C3[C@](CC)(C1=O)N2C(=O)c1ccc(F)cc1 (some centres not stated) | / | 0 | 4 | / | / | 5.6 | -6
C#CCOCCOCCOCCNc1nc(N2CCN(C(=O)[C@H](CCCN=C(N)N)n3cc(C(N)[C@@H](C)CC)nn3)CC2)nc(N2CCN(C(=O)[C@H](CO)n3cc([C@@H](N)C(C)C)nn3)CC2)n1 (some centres not stated) | -8 | 1 | 7 | / | 3496 | -0.1 | -2
CC(c1ccc(O)cc1)(c1ccc(O)cc1)c1ccc(CCBr)cc1 | -18 | / | / | -5 | 3721 | / | /
Cc1ccc(CN2CCN(Cc3cn[nH]c3C3CCCCC3)CC2CCO)cc1 (configuration not stated) | -11 | / | / | 2 | 4954 | / | /
CC(=NN1C(C)CCCC1C)c1ccccc1O (configuration not stated) | / | -3 | 8 | / | / | 1.6 | 7
O=[N+]([O-])c1ccc(C=NNc2ccc3ccccc3c2)o1 | / | 20 | 19 | / | / | 1.3 | 0
CCOc1ccc(S(=O)(=O)NCc2cccs2)cc1C(C)C | -26 | 17 | 7 | / | 4427 | 3.1 | -13
O=C(NC(=S)Nc1ccc2[nH]c(=O)[nH]c2c1)c1cc(Br)ccc1Cl | -14 | -2 | 1 | -3 | 5550 | 3.7 | 2
CCCn1c(SCC(=O)NC(=O)NC(C)(C)C)n[nH]c1=O | -2 | -6 | 6 | 6 | 4562 | 1.9 | 8
COc1ccc(CNC(=O)c2ccccc2SCC(=O)NCc2ccco2)cc1 | -5 | -5 | 5 | / | 6339 | -9.9 | -5
Cc1ccc(N2C(=O)/C(=C\c3ccco3)SC2=S)cc1 | -35 | 17 | 18 | -8 | 3665 | 4.2 | 2
CC(=O)Nc1ccc(S(=O)(=O)N2CCc3ccccc3C2)cc1 | -23 | 11 | 18 | -16 | 6579 | 6.9 | 3
O=C(N/C(=C/c1cccnc1)C(=O)N1CCCCCC1)c1ccccc1 | -21 | 15 | 7 | -16 | 3947 | 4.6 | 19
CC12CCC(=O)N1C(C(=O)Nc1ccccc1F)CS2 (configuration not stated) | -77 | 1 | 0 | 0 | / | 2.0 | 5

In another format: results already given
canonical_smiles	PrP UTR inh	Mtb hypoxia rep	Mtb hypoxia rep growth	BJeLR viability	Autofluor counter	RN4220 kill	ugtP null kill
CCOc1ccc(S(=O)(=O)NCc2cccs2)cc1C(C)C	-26	17	7	/	4427	3.1	-13
O=C(NC(=S)Nc1ccc2[nH]c(=O)[nH]c2c1)c1cc(Br)ccc1Cl	-14	-2	1	-3	5550	3.7	2
CCCn1c(SCC(=O)NC(=O)NC(C)(C)C)n[nH]c1=O	-2	-6	6	6	4562	1.9	8

The listing continues:
SMILES | PrP UTR inh | Mtb hypoxia rep | Mtb hypoxia rep growth | BJeLR viability | Autofluor counter | RN4220 kill | ugtP null kill
CC(C)c1ccc(/C=C/C(=O)Nc2ccc(CN3CCOCC3)cc2)cc1 | / | 0 | 0 | -5 | 6321 | -0.9 | 2
O=c1[nH]c2ccc(Br)cc2o1 | -32 | 20 | 11 | / | 3885 | 3.4 | 0
CCn1cnc2c1c(=O)n(Cc1ccc(C(=O)OC)cc1)c(=O)n2Cc1ccccc1 | -12 | 3 | 3 | -11 | 3584 | -2.8 | 0
O=C(NCCc1ccccc1)C1CC(c2ccccc2O)=NO1 (configuration not stated) | -23 | 5 | 2 | 1 | 6917 | 7.2 | 0
O=C1NC(=O)C(CCc2ccncc2)(CCc2ccncc2)C(=O)N1CCc1ccc(F)cc1 | -49 | -9 | -6 | / | 4383 | 2.7 | 10
O=C(C(c1ccccc1)C(O)c1ccccc1)N1CCOCC1 (configuration not stated) | -15 | 22 | 5 | / | 3898 | 2.0 | 1
CC(C)(C)OC(=O)NC(Cc1ccccc1)C(O)c1ccco1 (configuration not stated) | / | 7 | 7 | / | / | 3.1 | 5
CCOC(=O)N1CC(C)N(CC(O)CN2CCOCC2)CC1C (configuration not stated) | -6 | -1 | 4 | / | 3746 | 0.6 | -6
COc1ccc(CC(=O)N[C@@H]2c3cc(OC)c(OC)cc3C[C@H]2OCc2ccccc2)cc1 | -16 | 3 | 7 | / | 3284 | 1.7 | 9
CN(C)c1ccc(NC(=O)Nc2ccc3c(c2)nnn3C)cc1 | -42 | 16 | 11 | 1 | 3025 | 7.3 | 12
Cc1[nH]nc(NNC(=O)c2ccccc2)c1[N+](=O)[O-] | -17 | -6 | -3 | -11 | / | 3.0 | 9
Cc1cccc(-c2cc3nc(C)cc(N4CC(C)CC(C)C4)n3n2)c1 (configuration not stated) | -2 | / | / | / | 2955 | -3.6 | 18
COc1ccc(N2C(=O)CN=C2Nc2nc(C)cc(C)n2)cc1OC | 2 | 13 | 10 | -7 | 10004 | 0.6 | 3
Cc1ccc(C=NNC(=O)c2ccc(-c3ccccc3)cc2)o1 | / | 9 | 4 | / | / | 0.7 | 12
COc1ccc(-n2c(C)cc(C(=O)CSc3nnc(-c4cccs4)o3)c2C)cc1 | -6 | 6 | 8 | 9 | 18927* | 9.2 | -4
O=C1CN(C(=O)c2ccccc2)C(c2ccccc2)c2cc(F)ccc2N1 (configuration not stated) | 13 | -5 | 4 | 0 | 3655 | 2.8 | 5
O=C(NCCN1CCCC1)C1COc2ccccc2O1 (configuration not stated) | -7 | 2 | 10 | 0 | 7143 | 5.8 | 6
CC1=NNC(=O)C1CCC(=O)NN=Cc1ccccc1[N+](=O)[O-] (configuration not stated) | / | 0 | 1 | / | / | 4.4 | 15
Cc1ccc(CN(C)C(=O)CN2C(=O)NC3(CCCC3)C2=O)o1 | / | 6 | -12 | / | / | 3.2 | 10
O=C(COC(=O)CCCN1C(=O)c2cccc3cccc(c23)C1=O)Nc1ccc(Cl)cc1 | -25 | -3 | 3 | -5 | 1920 | -2.5 | 0

Among those listed so far, three have a COOH group.
SMILES | PrP UTR inh | Mtb hypoxia rep | Mtb hypoxia rep growth | BJeLR viability | Autofluor counter | RN4220 kill | ugtP null kill
COc1ccc(C(CC(=O)O)N2Cc3ccccc3C2=O)cc1 (configuration not stated) | 7 | 0 | -17 | 1 | 3103 | -0.5 | 9
CC1(C(=O)O)CCC(C(=O)NCCc2ccccc2)C1(C)C (configuration not stated) | -18 | / | / | 2 | 2803 | -2.4 | 1
COc1ccc(-c2nn(CCC(=O)O)cc2CCC(=O)O)cc1 | 3 | / | / | 11 | 3395 | 2.2 | 1

Two records drawn at random from the list so far, as already listed:
SMILES | PrP UTR inh | Mtb hypoxia rep | Mtb hypoxia rep growth | BJeLR viability | Autofluor counter | RN4220 kill | ugtP null kill
COc1ccc(C(CC(=O)O)N2Cc3ccccc3C2=O)cc1 (configuration not stated) | 7 | 0 | -17 | 1 | 3103 | -0.5 | 9
COc1ccc(N2C(=O)CN=C2Nc2nc(C)cc(C)n2)cc1OC | 2 | 13 | 10 | -7 | 10004 | 0.6 | 3

(listing goes on)
SMILES | PrP UTR inh | Mtb hypoxia rep | Mtb hypoxia rep growth | BJeLR viability | Autofluor counter | RN4220 kill | ugtP null kill
COc1ccccc1-c1cn(S(=O)(=O)c2ccc(F)cc2)nc1N | -14 | / | / | -3 | 4757 | 2.1 | -12
C=CCNc1sc(C(=O)C(C)(C)C)c(N)c1C#N | -3 | 10 | 6 | -5 | 8218 | 6.1 | 8
CCOCCCNS(=O)(=O)c1ccc2c(c1)CCN2C(=O)CC | -6 | / | / | -4 | 4063 | 0.9 | 4
COc1cccc(C(=O)Nc2ccc(NC(=O)C3CCCCC3C(=O)O)cc2)c1 (configuration not stated) | -9 | 5 | 7 | -10 | 5459 | 1.1 | -5
CC1CCN(Cc2c(C(=O)N/N=C/c3cccc(Cl)c3)nnn2-c2nonc2N)CC1 | -5 | / | / | -9 | 4028 | / | /
CC(C)(C)OC(=O)CC1CC=CCC(CC(=O)NCCO)C(=O)NC(Cc2ccccc2)COC1=O (configuration not stated) | / | 8&8&13&10 | 6&13&7&2 | / | / | 6.9&7.7&6.4&5.6 | 0&2&3&-3

An excerpt from above in order of molar mass, largest number first:
SMILES | PrP UTR inh | Mtb hypoxia rep | Mtb hypoxia rep growth | BJeLR viability | Autofluor counter | RN4220 kill | ugtP null kill
CC(C)(C)OC(=O)CC1CC=CCC(CC(=O)NCCO)C(=O)NC(Cc2ccccc2)COC1=O (configuration not stated) | / | 8&8&13&10 | 6&13&7&2 | / | / | 6.9&7.7&6.4&5.6 | 0&2&3&-3
CC1CCN(Cc2c(C(=O)N/N=C/c3cccc(Cl)c3)nnn2-c2nonc2N)CC1 | -5 | / | / | -9 | 4028 | / | /
COc1cccc(C(=O)Nc2ccc(NC(=O)C3CCCCC3C(=O)O)cc2)c1 (configuration not stated) | -9 | 5 | 7 | -10 | 5459 | 1.1 | -5

Compound activity: PubChem, several laboratories
